VACV Venus inh = qHTS for Stage-Specific Inhibitors of Vaccinia Orthopoxvirus: Venus Reporter Primary qHTS; 330,000 compounds, 0.46% hits; AID 720580, 2013; Potency, µM (top dose mostly 36.5 µM), inactives show top-dose activity change, negative = inhibition, actives largely listed as inhibitors; Vaccinia virus Venus reporter expression, fluorescence; active means well fitted inhibition curve with a large enough effect; inconclusive means small, poorly fitted or top-dose-only effect; inactive means no such curve, though single readings can be large or run the other way; tested in A549 cells; note: nearly all actives have a fitted effect of over 30% in size; inactives centre near -10
VACV mCherry inh = qHTS for Stage-Specific Inhibitors of Vaccinia Orthopoxvirus: mCherry Reporter Primary qHTS | Potency, µM (doses to about 36.5 µM), for inactives: top-dose activity change, negative = inhibition, usual class: inhibitors | 310,000 compounds, 0.63% hits | Vaccinia virus mCherry reporter infection, fluorescence; about a quarter of the inactives have no number; active = well fitted inhibition curve with a large enough effect; inconclusive = small, poorly fitted or top-dose-only effect; inactive = no such curve, though single readings can be large or run the other way; tested in A549 cells; note: nearly all actives have a fitted effect of over 35% in size; inactives centre near -10
The depositor's hits bear a star; i = inactive; ? = inconclusive; / = no result given; & = joins results of further samples; [ ] = dose if it differs, or a comment. % is set by controls: 0 for no effect and ±100 for the full control effect; potency is the fitted concentration of half-maximal effect. Compounds were not picked by outcome; any-hit rate near 0.82%.

SMILES	VACV Venus inh	VACV mCherry inh
Cc1cccc(-c2noc(CCC(=O)N3CCN(c4cc(C)ccc4C)CC3)n2)c1	-17.6%	-0.4%
CC(NC(=S)NCc1ccccc1)C12CC3CC(CC(C3)C1)C2 (stereo not given)	-2.2%	-16.2%
Cc1ccc(NS(=O)(=O)c2ccc(N/N=C/c3ccccc3OCC(=O)O)c([N+](=O)[O-])c2)c(C)c1	-10.6%	?
CCc1ccc(NC(=O)CCS(=O)(=O)c2cccc3nsnc23)cc1	-14.7%	-24.7%
O=C(Cn1nc(Br)nc1Br)c1ccccc1	-4.1%	-7.9%
CC(C)CC1C(=O)N(Cc2cn(CC3CCCCC3)nn2)CCS(=O)(=O)N1Cc1ccc(-c2ccncc2)cc1 (stereo not given)	-24.1%	-11.5%
CCOC(=O)C1CCCN(C(=O)c2cccc(S(=O)(=O)N(Cc3ccccc3)c3ccccc3OC)c2)C1 (stereo not given)	-16.4%	i
CN(CCc1ccccn1)C(=O)Nc1cccc(Cl)c1	-19.4%	i
COc1ccc(CNC(=O)N2CCN(C(=O)c3ccccc3)CC2)cc1	-6.8%	?
Cc1cc(C)cc(NC(=O)COC(=O)CCCNC(=O)c2ccc(Cl)cc2)c1	-0.4%	-10.0%
Cc1ccc(C2=NC3(CCCCC3)NC2=S)cc1	-17.2%	-15.0%
O=C(CCc1ccccc1)NNC(=O)c1ccc(NC(=O)c2ccccc2)cc1	-8.7%	-2.4%
Cc1cccc(CN2C(=O)CCSc3ccc(Cl)cc32)c1	-9.3%	-9.4%
COc1ccc(/C(O)=C/C(=O)C(=O)NNC(=O)C(O)(c2ccccc2)c2ccccc2)cc1	1.2%	/
Cc1cc(N2CCCCC2C)nc(-c2ccccc2O)n1 (stereo not given)	-4.9%	-13.3%
CC(=O)N1CCCc2cc(S(=O)(=O)N3CCC(C(=O)Nc4c(C)cccc4C)CC3)ccc21	-14.6%	-4.9%
CCCn1c(Nc2ccccc2)nc2ccccc21	1.2%	-15.1%
Oc1ccc(CNCC2COc3ccccc3O2)cc1 (stereo not given)	-13.7%	-12.9%[1.46 µM]
COCCCNC(=O)CC(C)c1ccccc1 (stereo not given)	-5.5%	i
Cc1ccc2nc(-c3ccc(C#N)cc3)c(Cc3cccc(Cl)c3)n2c1	-8.5%	23.2%
CN1CCc2nc(SCC(=O)Nc3cccc(F)c3)c(C#N)c(-c3cccs3)c2C1	-0.8%	-9.5%
O=C(NCC(=O)N1CCCC(C(F)(F)F)C1)c1ccc2ccccc2c1 (stereo not given)	-6.8%	-14.4%
O=C1N=C(N2CCCC2)S/C1=C\c1cccc(Br)c1	?	-2.6%
COc1ccc(NC(=O)C2CC(=O)N(CCc3ccc(Cl)cc3)C2)cc1 (stereo not given)	-23.2%	-2.2%
CCN(c1cccc(C)c1)S(=O)(=O)c1csc(C(N)=O)c1	-5.2%	-13.6%
CCCCCCSc1nnc(-c2cnn(-c3ccccc3)c2-n2cccc2)n1C	10µM*	10µM*
COc1ccccc1NS(=O)(=O)c1ccc(O)cc1	-4.0%	-13.0%
Cc1ccc(-c2nn3nnnc3c3ccccc23)cc1	-13.9%	/
O=C(Nc1ccc(Oc2cccnc2)cc1)c1ccccc1Cl	-9.5%	i
O=C(CC(=O)N/N=C\c1cccc(Cl)c1Cl)NCc1ccccc1	-9.7%	-10.3%

2 of these compounds, reformatted:
| structure | VACV Venus inh | VACV mCherry inh |
| --- | --- | --- |
| COc1ccc(NC(=O)C2CC(=O)N(CCc3ccc(Cl)cc3)C2)cc1 (stereo not given) | -23.2% | -2.2% |
| Cc1cc(C)cc(NC(=O)COC(=O)CCCNC(=O)c2ccc(Cl)cc2)c1 | -0.4% | -10.0% |

New compounds follow
SMILES	VACV Venus inh	VACV mCherry inh
Nc1nccc2c1ncn2C1OC(CO)C(O)C1O (stereo not given)	?	?
CC(=O)NCCC(=O)Nc1nc2ccc(Oc3ccccc3)cc2s1	-2.7%	-1.3%
CC(=O)Nc1sc(C)c(C)c1C(=O)OCC(=O)N(CC(C)C)C1CCS(=O)(=O)C1 (stereo not given)	?	4.1%
Cc1cccc(C)c1NC(=O)C(c1ccccc1)N(C)CCc1ccccc1 (stereo not given)	2.2%	i
COc1ccc(-c2ccc(=O)n(CC(=O)Nc3ccc4c(c3)OCCO4)n2)cc1	-5.8%	-17.0%
CNc1ccc(/C=C2\C=Cc3ccccc32)cc1Cl	-15.3%	-23.1%
COC(=O)c1cc(C(=O)Nc2cc(C)ccn2)cc([N+](=O)[O-])c1	-8.7%	-3.5%[1.46 µM]
Cc1ccc(S(=O)(=O)Nc2cc(Cl)c3oc4c(c3c2)C(=O)CC(C)(C)C4)cc1	-5.1%	0.7%
CC(Sc1nnc(-c2cccnc2)n1C)C(=O)N1CCOCC1 (stereo not given)	-21.1%	i
CC(=O)/C=C(\C)N=Nc1c(O)[nH]c2ccccc12	-28.8%	-29.3%
CC(C)(C)NC(=O)/C(=C/c1ccccc1F)NC(=O)c1ccc([N+](=O)[O-])cc1	-0.3%	i
COc1ccc(C(=O)NC(=S)NNC(=O)c2cnccn2)cc1	-13.8%	-15.4%
Cc1[nH][nH]c(=O)c1N=Nc1ccccc1Cl	-22.2%	-14.0%
CC(=O)c1ccc(OCC(C)C)c(CC(C(N)=O)C(N)=O)c1	-2.2%	i
COc1ccc(C(=O)Nc2cc(Cl)ccc2Cl)c(OC)n1	-8.2%	-20.9%[1.46 µM]
Cc1c(CNC(=O)c2c([N+](=O)[O-])cnn2C)cnn1C	5.5%	-3.0%
Cc1ccc(-n2ncc3c(N(C)C)ncnc32)cc1Cl	-1.9%	-5.5%
COc1ccccc1-c1coc2cc(O)ccc2c1=O	-16.3%	-15.5%
COc1ccc(CCNC(=O)Cc2ccc([N+](=O)[O-])cc2)cc1OC	1.8%	i
Cc1ccc(C)c(NC(=O)Nc2nnc(N(CC(C)C)CC(C)C)s2)c1	-12.6%	-18.0%
O=C1NCC(O)=C1C=NCCO	-0.8%	-17.8%
COC(=O)Cn1c(CN2CCOCC2)nc2c1c(=O)[nH]c(=O)n2C	-4.7%	-19.9%
Cc1sc(NC(=O)C2=COCCO2)nc1-c1ccc(Cl)cc1	-8.8%	i
COc1cc(NC(=O)c2ccc(C(C)(C)C)cc2)c(OC)cc1NC(=O)CN1CCCCC1	4.7%	1.9%
CC1CCc2c(sc3nc(CSc4ncn[nH]4)[nH]c(=O)c23)C1 (stereo not given)	-24.0%	-10.7%
CCn1c(C)c(C)c2cc(C(=O)N3CCN(c4cccc(C)c4C)CC3)ccc21	-13.7%&-6.9%	?
COc1cc(CNc2ccc3[nH]c(=O)[nH]c3c2)cc(Br)c1OCc1ccccc1F	?	6.31µM*
COc1ccc(C(=O)OCc2c(-c3cccc(OC)c3)ncc3ccccc23)cc1	-10.0%	i
Cc1cccc(C(O)c2ncc(-c3ccc(F)cc3)[nH]2)c1C (stereo not given)	-7.7%	12.3%
OC(CN1CCCCC1)Cn1c(C(F)(F)F)nc2ccccc21 (stereo not given)	-22.4%	/
O=C(NCCSCc1ccccc1)c1ccc(Cl)c(S(=O)(=O)N2CCOCC2)c1	-24.1%	-29.2%
NS(=O)(=O)c1ccc(N/N=C2/CCCCC2C2CCCCC2)c([N+](=O)[O-])c1 (stereo not given)	15.8µM*	20µM*
COc1cc2ccccc2cc1C(=O)N1CCN(c2ccccn2)CC1	0.5%	i
C[C@@H]1C=C[C@](Cc2ccccc2)(C(=O)O)N1C(=O)c1ccccc1	-1.5%	-27.1%
O=C(COC(=O)c1n[nH]c2ccccc12)Nc1ccc(S(=O)(=O)N2CCCC2)cc1	-42.1%	/
Clc1nc(CN2CCCCC2)nc2sc3c(c12)CCCC3	?	-18.1%
O=C(O)C1=CC[C@@H](c2ccc(Cl)cc2)N(S(=O)(=O)c2ccc(Cl)cc2)C1	-4.1%	i
Cc1cccc(C(=O)NCCNC(=O)c2cnccn2)c1	-1.8%	-7.3%
CCOC(=O)C1C(=O)CC(C)(O)C(C(=O)OCC)C1c1ccc2c(c1)OCO2 (stereo not given)	-8.9%	-16.0%
CCOC(=O)c1nc2sc3c(c2c(=O)n1C(C)C(=O)OCC)CCCC3 (stereo not given)	-7.0%	i
Cc1cc(C)c(S(=O)(=O)Cc2ccc(Cl)cc2)c(=O)[nH]1	-9.5%	i
NS(=O)(=O)c1cccc(NC(=O)CCCNC(=O)c2ccc(Cl)cc2)c1	-10.3%	-8.4%
Cc1ccc(C)c(N2CCN(Cc3nnnn3C3CCCCC3)CC2)c1	-12.7%	/
O=C(Nc1ccc2nn(-c3ccccc3)nc2c1)c1cc2ccccc2o1	-9.9%	-6.9%
Nc1cc(=O)[nH]c(SCC(=O)Nc2ccc(Br)cc2)n1	-3.4%	/
N=c1occ(C(=O)c2cc(F)ccc2O)cc1C(=O)NC1CCCCC1	-14.0%	-5.0%
COc1ccc(CCC(=O)NC2CCC(C)CC2)cc1 (stereo not given)	-4.0%	-11.2%
COc1ccc(N2CC(C(=O)NCc3nnnn3-c3ccc(C)c(C)c3)CC2=O)cc1 (stereo not given)	-17.2%&-9.1%	-1.7%
COc1cc(=O)n2c(c1C(=O)N(C)Cc1nonc1C)CCN(Cc1cccc(Cl)c1)CC2	0.1%	-8.9%
COc1ccc(Cn2nnc3c(=O)[nH]c(C4CCCN(C(=O)c5ccccc5)C4)nc32)cc1 (stereo not given)	-11.8%	-2.9%
Cc1cc(C)n(CC(O)COc2ccccc2[N+](=O)[O-])n1 (stereo not given)	-10.0%	-29.2%
O=C(NNC(=O)c1ccc[nH]1)Nc1cc(Cl)cc(Cl)c1	-4.4%	i
CNC(=O)c1ccccc1NC(=O)c1cccc(S(=O)(=O)N2CCCCC2)c1	1.8%	i
COc1ccccc1C(=O)OCC(=O)NCCNC(=O)COC(=O)c1ccccc1OC	-12.2%	-3.8%
COc1ccc(C=C2SC(=S)NC2=O)cc1	-13.4%	i
CCOc1ccccc1C(=O)NCC(=O)NCC(c1ccco1)N1CCCCC1 (stereo not given)	-5.8%	-24.2%
COc1ccc(CCNC(=O)C2CCCN(S(=O)(=O)c3ccc(F)cc3)C2)cc1OC (stereo not given)	-12.4%	-6.6%
COc1ccccc1NC(c1cccnc1)c1ccc2cccnc2c1O (stereo not given)	-10.1%	-29.4%
CCOc1ccccc1C1C(C(=O)N2CCCCC2)=C(C)Nc2nc3ccccc3n21 (stereo not given)	2.5%	-12.8%
Cc1cc(C)cc(Cn2cc(CN3CC(N4CCCC4)CS3(=O)=O)nn2)c1 (stereo not given)	-5.6%	-12.7%

New compounds follow.
SMILES	VACV Venus inh	VACV mCherry inh
Cc1cccc(OCC(=O)Nc2nnn(C)n2)c1C	-22.9%	-35.2%
CC(=O)Nc1ccc(S(=O)(=O)Nc2ccc3[nH]c(=O)[nH]c3c2)cc1	-2.4%	i
COC(=O)c1c(NC(=O)CC2SC(N)=NC2=O)sc2c1CCCC2 (stereo not given)	0.0%	?
C=CCn1c(SCC(=O)c2c(N)n(CCC)c(=O)n(C)c2=O)nc2sc(CC)cc2c1=O	-11.4%	/
CC(=O)Nc1ccc(-c2sc(Nc3ccccc3)n[n+]2C)cc1	-10.6%	i
CCCCc1cc(=O)oc2cc(O)ccc12	-10.0%	-4.2%
Cc1cccc(C)c1NC(=O)COC(=O)C1Cc2ccccc2CN1C(=O)c1ccccc1 (stereo not given)	-5.3%	-16.8%
CC(NC(=O)c1ccc2c(c1)N(Cc1cccc(F)c1)C(=O)c1ccccc1S2)c1ccccc1 (stereo not given)	-5.5%	-10.4%
COC(=O)c1ccc(COC(=O)c2ccc(CO)cc2)o1	-11.2%	i
COCCNC(=S)N/N=C/c1ccc([N+](=O)[O-])cc1	-5.7%	?
COc1cccc(/C=N/NC(=O)c2[nH]c(C)c(C(=O)N/N=C/c3cccc(OC)c3)c2C)c1	-11.8%	-16.9%
O=C(C1COc2ccccc2O1)N1CCN(c2ccc(F)cc2)CC1 (stereo not given)	-6.4%	-9.6%
CCOC(=O)NC(=O)CSc1nc2ccccc2[nH]1	-0.8%	i
S=C1N(c2ccccc2)C(c2cccc3ccccc23)N2CCCN12 (stereo not given)	-12.0%	-13.1%
CN(C)c1nnnn1Cc1ccc(Cl)cc1Cl	-15.1%	i
Cc1ccc(C(=O)NC2=NC(c3ccc(C)cc3)CC(=O)N2)cc1 (stereo not given)	-0.2%	-7.8%
COC(=O)[C@]1(C)N[C@H](c2ccc(SC3CCCCC3)cc2)[C@@H]2C(=O)N(C)C(=O)[C@@H]21	-19.1%	?
COc1ccc(NC(=S)NCc2cccn2C)cc1	-7.2%	-4.3%
Cc1cc(C)nc(SCC(=O)Nc2ccc(S(=O)(=O)Nc3onc(C)c3C)cc2)n1	1.3%	3.7%
CCOc1ccc(CNC(=O)c2ccc3nc(N4CCOCC4)sc3c2)cc1	-23.7%	-8.7%
O=C(O)CCCn1cc(NC(=O)COc2cc(F)ccc2[N+](=O)[O-])cn1	-10.5%	-14.6%
CC(=O)Nc1ccc(S(=O)(=O)NNC(=O)c2sc(=S)n(C)c2C)cc1	-2.4%	-11.0%
COCCn1c(C)cc(O)c(C(c2ccc(OC)cc2)N2CCN(c3ccccc3)CC2)c1=O (stereo not given)	-8.3%	-12.8%

Single values from the results shown.
For VACV mCherry inh, `CCc1ccc(NC(=O)CCS(=O)(=O)c2cccc3nsnc23)cc1` has -24.7%
For VACV mCherry inh, `CC1CCc2c(sc3nc(CSc4ncn[nH]4)[nH]c(=O)c23)C1` (stereo not given) has -10.7%
For VACV mCherry inh, `COc1ccccc1NC(c1cccnc1)c1ccc2cccnc2c1O` (stereo not given) has -29.4%
For VACV Venus inh, `Cc1sc(NC(=O)C2=COCCO2)nc1-c1ccc(Cl)cc1` has -8.8%

From PubChem
